Mtb growth: Confirmatory growth inhibition assay against Mycobacterium tuberculosis H37Rv, potency (AID 1949) | most inactive calls were filed without a number and no value below 0 was filed | inhibition, % at 10 µg/mL, or IC50 in µg/mL where a hit was titrated | hit rate 1.6% among 100,000;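 active = confirmed in a dose series; inconclusive = about 50% or more but not retested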;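 note: bacteria grown 7 days with compound before Alamar blue readout; 0% = untreated bacteria and 100% = reference antibiotic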
Numbers without * were called inactive; i = inactive; ? = inconclusive. Only part of the results is shown; rates above refer to the full screens.

SMILES	Mtb growth
O=C(Cc1ccccc1)NC(=S)Nc1ccc(Oc2ccccc2)cc1	7.6µg/mL*
COc1ccc(N(CC(=O)Nc2cccc(SC)c2)S(C)(=O)=O)cc1OC	i
CCn1nnnc1-c1ccc(OC)c(S(=O)(=O)Nc2c(C)n(C)n(-c3ccccc3)c2=O)c1	i
CCOC(=O)c1cc(Cc2ccccc2)sc1NC(=S)NCc1ccc(S(N)(=O)=O)cc1	i
Cc1nn(-c2cc(N3CCN(C(=O)c4ccc(F)cc4)CC3)ccc2[N+](=O)[O-])c(=O)c2ccccc12	49%
CCOc1ccc(S(=O)(=O)N(CC(=O)Nc2cccc(SC)c2)c2ccc(C)cc2)cc1	1%
COC(=O)c1ccc(NC(NC(=O)c2ccc(OC)c(OC)c2)C(Cl)(Cl)Cl)cc1 (stereo not given)	2%
O=C1Nc2ccc([N+](=O)[O-])cc2C1(O)N1CCCCCC1 (stereo not given)	i
Cc1ccc(-c2cc(C(F)F)n3ncc(C(=O)N4CCN5CCCC5C4)c3n2)cc1 (stereo not given)	i
COc1ccccc1N1CCN(C(=S)Nc2cccc(C(F)(F)F)c2)CC1	i
O=C(CCSc1ccc(Cl)cc1)N1CCN(c2ccccc2F)CC1	i
COc1cc(NC(=S)Nc2ccccn2)cc(OC)c1	43%
CCc1cccc(C)c1NC(=O)CSCc1ccc([N+](=O)[O-])cc1	i
CCCC(=O)Nc1sc(C)c(CC)c1C(N)=O	i
CCOc1ccc(NC(=O)CN(C2CCCCC2)S(=O)(=O)c2ccc(Br)cc2)cc1	i
C=CCN(CC=C)C(=O)C(C)Oc1ccc(Cl)cc1Cl (stereo not given)	1%
Cc1cc2nc(-c3cccc(NC(=O)Cc4ccc(Cl)cc4)c3)oc2cc1C	i
CCOC(=O)CNC(=S)Nc1sc(CC)cc1C(=O)OC	i
CC(NC(=O)c1ccccc1NC(=O)CN(c1cccc(Br)c1)S(C)(=O)=O)c1ccccc1 (stereo not given)	0%
Cc1ccc(-c2nn3c(C)nnc3s2)cc1NC(=O)c1cc(I)ccc1Cl	i
CCN(CC)C(=O)c1cnn(-c2ccccc2)c1NC(=O)c1ccccc1F	i
Cc1c(NC(=O)c2cccc(NC(=O)C(C)C)c2)cccc1[N+](=O)[O-]	i
Cc1cc(C)cc(NC(=O)CN(c2cccc3ccccc23)S(C)(=O)=O)c1	6%
CNC(=O)CN(c1ccccc1Cl)S(C)(=O)=O	i
O=C(Nc1ccon1)c1ccc(Br)s1	i
Cc1nnc(SCC(=O)c2ccc([N+](=O)[O-])cc2)s1	i
Cc1ccc(C)c(N(CC(=O)Nc2ccccc2Cl)S(=O)(=O)c2ccccc2)c1	i
Cc1c(Br)ccc(NC(=O)c2ccccc2[N+](=O)[O-])c1C	i
COc1ccc2c(c1)c(=O)oc1c(C)c(OCc3ccccc3OC)ccc12	i
Cc1nc(CSc2nnc3c(C)cc4ccccc4n23)cs1	i

Part of the list above in order of heavy-atom count, rising:
SMILES	Mtb growth
O=C(Nc1ccon1)c1ccc(Br)s1	i
O=C1Nc2ccc([N+](=O)[O-])cc2C1(O)N1CCCCCC1 (stereo not given)	i
Cc1ccc(-c2nn3c(C)nnc3s2)cc1NC(=O)c1cc(I)ccc1Cl	i

Remaining list, next part.
SMILES	Mtb growth
CCC(Sc1nnc(-c2ccc(N)cc2)n1C)C(=O)Nc1ccc(Br)cc1 (stereo not given)	i
CCOCCn1c(N2CCN(CC)CC2)nc2c1c(=O)[nH]c(=O)n2C	i
CC(=O)Oc1ccc(-c2csc(Nc3ccc(Cl)cn3)n2)cc1	0%
CC1CCN(S(=O)(=O)c2ccc(Oc3ccccc3Cl)cc2)CC1	1%
CCC(C)c1ccccc1NC(=O)c1ccc(C#N)cc1F (stereo not given)	i
CCNC(=O)CC1C(=O)N(c2cccc(OC)c2)C(=O)N1CCOC (stereo not given)	i
O=C(OCc1ccc(Cl)cc1Cl)c1cnccn1	47%
COCc1cc(C)nc2sc(C(=O)Nc3ccc4c(c3)OCCO4)c(N)c12	2%
CCOC(=O)c1ccc(NC(=O)CSc2nnc(-c3cccc(Cl)c3)n2CC)cc1	i
C=CCNC(=S)Nc1ccccc1-c1ccccc1	i
CCn1c(SCC(=O)Nc2ccc([N+](=O)[O-])cc2C)nnc1C(C)NC(=O)c1ccc(Cl)cc1Cl (stereo not given)	i
COc1ccc(C)cc1NC(=O)CN(Cc1ccc(F)cc1)S(=O)(=O)c1ccc(Cl)cc1	i
Cc1cc(C)nc(NC(=S)Nc2ccc3c(c2)OCO3)n1	i
COC(=O)c1c(-c2cccnc2)csc1NC(=O)c1sc2ccccc2c1Cl	i
CS(=O)(=O)N(CC(=O)Nc1ccc(F)c(Cl)c1)c1ccc(Cl)c(Cl)c1	0%
CC1CN(C2CCN(Cc3ccccc3C(F)(F)F)CC2)CC(C)O1 (stereo not given)	0%
COc1ccc(OC(C)C(=O)Nc2ccc(C(C)C)cc2)cc1 (stereo not given)	44%
Cc1nnc2sc(-c3ccccc3NC(=S)NC(=O)c3cc4ccccc4o3)nn12	i
CCOc1ccccc1NC(=O)CN(C1CCCCC1)S(=O)(=O)c1ccc(F)cc1	i
COc1ccc(OC(=O)COc2ccc(C)cc2Br)cc1	i
CNC(=O)c1c(-c2ccccc2)oc2ccc(OC)cc12	i
Clc1ccccc1CSc1nnc2c(n1)OC=Nc1ccccc1-2	i
CN(C)c1oc(COc2ccc(Br)cc2)nc1C#N	i
COc1cc(CNC(C)c2ccccc2)cc(Br)c1OCc1ccccc1 (stereo not given)	6.2µg/mL*
CC(C)C(=O)Nc1cccc(C(=O)NC2CCCCCC2)c1	i
O=C(Cn1cnc2ccccc2c1=O)c1ccc(Br)cc1	i
O=S(=O)(NCCN1CCCC1)c1cccc2nsnc12	i
COCCNC(=S)N1CCN(Cc2ccc3c(c2)OCO3)CC1	i
O=C(CCc1ccccc1)Nc1ccc(OCC(=O)N2CCOCC2)cc1	i
CCOc1ccccc1-c1nnc(SCc2ccc(C(=O)OC)o2)o1	i

Not a retest: an excerpt of the list.
SMILES	Mtb growth
CC1CN(C2CCN(Cc3ccccc3C(F)(F)F)CC2)CC(C)O1 (stereo not given)	0%
COc1ccc(OC(C)C(=O)Nc2ccc(C(C)C)cc2)cc1 (stereo not given)	44%
Cc1nnc2sc(-c3ccccc3NC(=S)NC(=O)c3cc4ccccc4o3)nn12	i
CCOc1ccccc1NC(=O)CN(C1CCCCC1)S(=O)(=O)c1ccc(F)cc1	i
COc1ccc(OC(=O)COc2ccc(C)cc2Br)cc1	i
CNC(=O)c1c(-c2ccccc2)oc2ccc(OC)cc12	i
Clc1ccccc1CSc1nnc2c(n1)OC=Nc1ccccc1-2	i

Later entries.
SMILES	Mtb growth
COc1cccc(NC(=O)Nc2cc(C)ccc2F)c1	1%
CC(C)(C)C(=O)NC(=S)Nc1ccc(F)c(Cl)c1	2%
Cc1c(NC(=O)NCc2ccccc2)c(=O)n(-c2ccccc2)n1C	i
Cc1nc2ccc(C(=O)N3CCSCC3)cc2s1	i
CCC(C)(c1ccccc1)c1c[nH]c2ccccc12 (stereo not given)	14%
O=C(NC(=S)NC1CCS(=O)(=O)C1)c1cccs1 (stereo not given)	i
Cc1cc(Cl)ccc1OCC(=O)N1CC(C)CC(C)C1 (stereo not given)	i
CSc1ccccc1C(=O)NCc1ccncc1	i
CN(Cc1ccccc1)C1CCN(Cc2ccccc2[N+](=O)[O-])CC1	i
Cc1ccc([N+](=O)[O-])cc1NC(=O)CSc1nnc(C(NC(=O)c2ccccc2)C(C)C)n1C (stereo not given)	4%
CN(C)c1ccc(Nc2nc(-c3cccnc3)cs2)cc1	3%
COc1ccc(C(=O)O)cc1NC(=S)NC(=O)c1ccc(-c2cc(Cl)ccc2Cl)o1	i
COc1ccc(S(=O)(=O)N2CCOCC2)cc1[N+](=O)[O-]	i
CC1(C)C=Cc2c(nc3ccccc3c2NCc2ccccc2)C1	1.5µg/mL*
CSc1ccc(S(=O)(=O)N(C)Cc2ccccc2)cc1	i

The closing 2 records of the section before are carried over, then new ones follow.
SMILES	Mtb growth
CC1(C)C=Cc2c(nc3ccccc3c2NCc2ccccc2)C1	1.5µg/mL*
CSc1ccc(S(=O)(=O)N(C)Cc2ccccc2)cc1	i
COc1ccc(-c2c(C#N)c(SCC(=O)Nc3nccs3)nc3c2CCC3)cc1	i
Cc1noc(NS(=O)(=O)c2ccc(NC(=O)COc3ccccc3[N+](=O)[O-])cc2)c1C	i
COc1ccc(Cl)cc1C(=O)Nc1nc(-c2ccc(F)cc2F)cs1	i
Cn1c(SCC(=O)Nc2ccc(F)cc2)nnc1-c1ccc([N+](=O)[O-])cc1	i
O=c1oc(-c2cccc(Cl)c2)nc2scc(-c3ccc(Br)cc3)c12	i
CCOC(=O)c1ccc(NC(=O)C2CCN(S(=O)(=O)c3cc(Cl)ccc3Cl)CC2)cc1	i
COc1ccc(/C=C/c2nn3c(-c4ccc(F)cc4)nnc3s2)cc1	?
O=C(NCC1CCCO1)c1ccc(NC(=O)C2(c3ccccc3)CCCC2)cc1 (stereo not given)	i
O=C(O)c1cccc(S(=O)(=O)N2CCC(C(=O)O)CC2)c1	i
O=C(NCCC1=CCCCC1)c1cccs1	5%
O=C(Nc1cccc(NC(=O)c2cccs2)c1)c1cccc(-c2cc3ccccc3oc2=O)c1	i
O=C(Nc1cccc(C(=O)N2CCN(c3ccccc3)CC2)c1)c1ccccc1	3%
O=C(N(c1ccccc1)c1ccccc1)n1cncn1	i
O=C(CCC1CCCC1)NCc1ccccc1Cl	i
CCN(C(=O)COc1cc(C)cc(C)c1)c1ccccc1	i
O=c1[nH]nc(SCc2ccc(Br)cc2)c(=O)[nH]1	11%
CC(=O)n1c(SC(C)C(=O)Nc2nc3ccccc3s2)nc2ccccc21 (stereo not given)	1%
COc1ccc(S(=O)(=O)Nc2ccc(C)cc2C)c(Cl)c1Cl	i
O=C1CCCN1C(=O)CN1CCCCC1	i
O=C(NC(=S)NCc1ccc2c(c1)OCO2)c1ccccc1	0%
Cc1noc(C)c1C(=O)NCCCn1ccnc1	i
CCOc1cccc2c(C)nc(Nc3nc4c(c(=O)[nH]3)CCCC4)nc12	?
CCCCOc1cccc(C(=O)Nc2ccc(S(=O)(=O)Nc3cc(OC)nc(OC)n3)cc2)c1	i
COCCCn1cnc2cc([N+](=O)[O-])ccc21	i
COC(=O)NNC(=O)Nc1cccc(OC)c1	i
COc1ccc(NC(=O)c2ccccc2N(Cc2ccccc2)S(C)(=O)=O)cc1OC	i
O=C(COc1cccc2ccccc12)Nc1ccccc1C(=O)O	22%
CCc1ccc2oc(-c3ccc(C)c(NC(=S)NC(=O)c4cc5ccccc5o4)c3)nc2c1	i
COC(=O)c1cccc(NC(=O)CSc2ccc(C)cc2)c1C	i
CCN(CC)S(=O)(=O)c1cc(C(=O)Nc2ccccn2)ccc1Br	1%
N#Cc1ccc(C(=O)Nc2ccc(N3CCN(C(=O)c4cccs4)CC3)cc2)c(F)c1	i
S=C(Nc1ccc(Nc2ccccc2)cc1)NC1CCCC1	27%
COc1cccc(NC(=O)CN(c2ccc(Cl)cc2Cl)S(=O)(=O)c2ccccc2)c1	4%
O=C(CSc1nnc(NC(=O)CCc2ccccc2)s1)Nc1ccc2c(c1)oc1ccccc12	4%
COc1ccccc1N1CCN(C(=O)CN(c2cc(C)ccc2C)S(C)(=O)=O)CC1	i
COc1ccc(S(=O)(=O)NC2CC(C)(C)NC(C)(C)C2)c(C)c1C	i
Cc1cc(C)c(C)c(OCC(=O)Nc2cccc(C)n2)c1	i
C=CCOc1cccc(CNC(C)(C)CO)c1	i
O=C(Nc1ncc(Cc2cccc(C(F)(F)F)c2)s1)C(c1ccccc1)c1ccccc1	7%
CC(C)CNC(=O)C1CC(=O)N(c2ccc(O)cc2)C1 (stereo not given)	i
O=C(CN(Cc1ccccc1Cl)S(=O)(=O)c1ccc(Cl)cc1)Nc1ccccc1Cl	1%
CN1Cc2c(N3CCOCC3)nc(SCc3ccc(Cl)c(Cl)c3)c(C#N)c2CC1(C)C	15%
COc1ccc(Cl)cc1NC(=S)Nc1ccccc1C	0%
COc1ccc(Cl)cc1NC(=O)c1sc2nc(N)c(C#N)cc2c1N	i
O=C(Nc1ccccc1)c1cccc(N2C(=O)C3CCCCC3C2=O)c1 (stereo not given)	3%
Cc1ccc(C(=O)NC(C)c2nnc(SCC(=O)Nc3ccc(Cl)cc3)n2C)cc1 (stereo not given)	i
COc1ccc(OC(C)C(=O)N2CCc3ccccc3C2)cc1 (stereo not given)	6%
COc1ccc(-c2nc(-c3ccc(O)cc3O)cs2)cc1OC	0.17µg/mL*
C=CCOc1ccc(Oc2nc(NC(C)C)nc(NC(C)C)n2)nn1	i
O=C(COc1ccc(S(=O)(=O)N2CCCCC2)cc1)NCc1ccccn1	i
COC(=O)C1=CN(C)C=C(C(=O)OC)C1c1ccccc1Cl	i
CC(C)(C)c1cn2c3ccccc3nc2n1CCO	8%
Cc1ccc(N2C(=O)CC(C3=C(N4CCOCC4)CCCC3)C2=O)cc1 (stereo not given)	i
COc1cc(OC)c(C(=O)Nc2ccc(Br)cc2C)cc1OC	i
CCOc1ccc(S(=O)(=O)N2CCN(c3cc(C)cc(C)c3)CC2)cc1	i
COc1ccc(CCNC(=O)CCCN2C(=O)c3ccccc3C2=O)cc1	i
COc1ccccc1CC(=O)Nc1ccc2c(c1)OCCO2	i
CCC(=O)Nc1nnc(SCC(=O)Nc2cccc(Cl)c2)s1	i
Cc1ccc(NC(=O)COc2ccc(Cl)cc2Cl)cc1[N+](=O)[O-]	i
COc1ccc(OCC(=O)Nc2ccc(OCC(N)=O)cc2)cc1	i
CC(=O)c1sc(SCCOc2ccccc2)nc1C	2%
CCOc1ccccc1NC(=O)C(=O)NCCCO	i
Cc1ccc(C(=O)CNc2cccc3ccccc23)cc1	i

Screening results from PubChem BioAssay.
